StopGo reporter: High Throughput Screening for Foot and Mouth Disease Virus Antivirals. human cells with a luciferase reporter of 2A StopGo recoding; control for the full effect not named in the record. Potency, µM (highest dose often 57.9 µM), without a hit: at the top dose signal change, negative = less light. 410,000 tested, 1.2% active; active = well fitted falling curve with a large enough effect; inconclusive = small, poorly fitted or top-dose-only effect; inactive = no such curve, though single readings can be large or run the other way; tested in HEK293T cells; also: % is scaled to controls: 0 for no effect and ±100 for the full control effect; nearly all actives have a fitted effect of over 45% in size; luciferase light after 4 h
NS1 function inh: qHTS Assay for Inhibitors of Influenza NS1 Protein Function; S. cerevisiae slowed by influenza A NS1, growth recovery by OD600; Potency, µM (series often up to 46.1 µM), for inactives: at the highest dose activity, positive = more growth; 270,000 tested, 0.4% active; also: actives are rising curves; nearly all actives have a fitted effect of over 50% in size
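Compounds were scored for reversing the slow growth caused by influenza A NS1 in S. cerevisiae, measured by optical density at 600 nm. Assay medium contained 2% galactose at pH 6.0; NS1-free yeast of the same strain were the positive control.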
Cruzain inh Det: qHTS Assay for Promiscuous and Specific Inhibitors of Cruzain (with detergent). Cruzipain (Trypanosoma cruzi), P25779. purified cruzain, Z-FR-AMC fluorescence, 0.01% Triton. Potency, µM, without a hit: max response, negative = inhibition, hits mostly inhibitors. 200,000 tested, 0.43% active. AID 1478, 2009; active = well fitted curve in the direction sought with a large enough effect; inconclusive = small, poorly fitted or top-dose-only effect, or another doubt; inactive = no such curve, though single readings can be large; an effect the other way counts as inactive or inconclusive;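 also: plate controls were neutral wells for no effect and buffer without enzyme for full effect; nearly all actives have a fitted effect of over 40% in size; top concentration of the series not given in the record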
Target sequence (P25779 123-467 limits assumed): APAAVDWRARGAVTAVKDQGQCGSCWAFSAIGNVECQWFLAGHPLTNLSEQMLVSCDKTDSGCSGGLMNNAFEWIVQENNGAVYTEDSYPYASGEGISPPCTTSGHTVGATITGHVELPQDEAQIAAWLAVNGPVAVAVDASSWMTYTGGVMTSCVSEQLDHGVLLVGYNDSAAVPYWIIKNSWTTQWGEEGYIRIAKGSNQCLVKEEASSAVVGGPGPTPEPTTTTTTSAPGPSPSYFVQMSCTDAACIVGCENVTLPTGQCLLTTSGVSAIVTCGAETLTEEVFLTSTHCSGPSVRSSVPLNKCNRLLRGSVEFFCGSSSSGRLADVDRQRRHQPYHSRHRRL
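Sodium acetate buffer (100 mM, pH 5.5) containing 5 mM DTT and 0.01% Triton X-100 hosted 1.5 nM cruzain and test compound for 15 min at room temperature. Cleavage of 2 uM Z-FR-AMC was then tracked by fluorescence.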
MARV entry inh: qHTS for inhibitors of binding or entry into cells for Marburg Virus; 300,000 tested, 1.8% active; Marburg virus pseudotyped entry inhibition, cell reporter; control for the full effect not named in the record; about a third of the inactives were read at about 46 µM; Potency, µM (titrated, usually from 37.8 µM), for inactives: at the highest dose activity change, negative = inhibition, usual class: inhibitors; active = well fitted inhibition curve with a large enough effect; inconclusive = small, poorly fitted or top-dose-only effect, or effect the other way; inactive = flat fitted curve, though single readings scatter; tested in HEK293 cells; about a fifth of its hits are not listed in these tables; also: % is scaled to controls: 0 for no effect and ±100 for the full control effect; luciferase read-out
SARS PLpro yeast: qHTS of Yeast-based Assay for SARS-CoV PLP. 330,000 tested, 0.19% active. Potency, µM (top dose mostly 32.9 µM), for inactives: at the highest dose activity, positive = growth rescue. S. cerevisiae expressing SARS-CoV PLpro, growth rescue; control for the full effect not named in the record; also: 0% is about no effect; nearly all actives have a fitted effect of over 55% in size; growth read by luminescence after 48 h
RE007 growth inh: qHTS Assay for Inhibitors of the HIV-1 protein Vpr; Potency, µM (series often up to 92.2 µM), for inactives: at the top dose activity change, negative = less growth; S. pombe RE007 Vpr strain, BacTiter-Glo ATP luminescence, 24 h; control for the full effect not named in the record; 360,000 tested, 0.21% active; active = well fitted falling curve with a large enough effect; inconclusive = small, poorly fitted or top-dose-only effect; inactive = no such curve, though single readings can be large or run the other way;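 also: % is scaled to controls: 0 for no effect and ±100 for the full control effect; nearly all actives have a fitted effect of over 50% in size; the assay follows cell death caused by Vpr and the record does not say whether a fall means rescue or toxicity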
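Fission yeast RE007 carrying one integrated HIV-1 vpr copy, seeded at OD 0.01 in PMG+AL medium with 23 nL pinned compound. Grown 24 h at 30 degrees; viability read by BacTiter-Glo luminescence after 5 min.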
LASV entry inh: qHTS for Inhibitors of binding or entry into cells for Lassa Virus; AID 540256, 2011; Potency, µM (doses to about 37.9 µM), for the others: at the top dose activity change, negative = inhibition, hits mostly inhibitors; Lassa virus pseudotype entry inhibition, cell reporter; control for the full effect not named in the record; 300,000 tested, 1.2% active; active means well fitted inhibition curve with a large enough effect; inconclusive means small, poorly fitted or top-dose-only effect, or effect the other way; inactive means flat fitted curve, though single readings scatter; tested in HEK293 cells; also: % is scaled to controls: 0 for no effect and ±100 for the full control effect; nearly all actives have a fitted effect of over 50% in size; luciferase read-out
Cruzain inh noDet: qHTS Assay for Promiscuous and Specific Inhibitors of Cruzain (without detergent) | Cruzipain (Trypanosoma cruzi), P25779 | purified cruzain, Z-FR-AMC fluorescence, no detergent | Potency, µM, inactives show max response, negative = inhibition, actives largely listed as inhibitors | 200,000 tested, 2.3% active | AID 1476, 2009; active = well fitted curve in the direction sought with a large enough effect; inconclusive = small, poorly fitted or top-dose-only effect, or another doubt; inactive = no such curve, though single readings can be large; an effect the other way counts as inactive or inconclusive;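 also: plate controls were enzyme without inhibitor for no effect and buffer without enzyme for full effect; nearly all actives have a fitted effect of over 40% in size; top concentration of the series not given in the record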
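Purified cruzain at 1.5 nM, pre-incubated 15 min with compound at room temperature in 100 mM sodium acetate pH 5.5, 5 mM DTT, 0.00005% Triton X-100. Reaction started with 2 uM Z-FR-AMC; AMC fluorescence increase over 60 s gives rate.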
Starred values were filed as active, the others as inactive; u = inconclusive; x = not tested or not shown; & = joins results of further samples; [ ] = another dose, or the depositor's remark. Unless noted, calls follow the shape of the dose curve; as a rule, active means well fitted rising curve with a large enough effect; inconclusive means small, poorly fitted or top-dose-only effect; inactive means no such curve, though single readings can be large or run the other way. Potency is read from the fitted curve at half-maximal effect. No enrichment for hits; about 4.5% have a hit in one of these screens.

Values run as follows: StopGo reporter | NS1 function inh | Cruzain inh Det | MARV entry inh | SARS PLpro yeast | RE007 growth inh | LASV entry inh | Cruzain inh noDet
Cc1cc(C)nc(SCC(=O)NNS(=O)(=O)c2ccc(C#N)cc2)n1
  -5% | x | x | 11% | -4% | 9% | 10% | x
O=c1cccccc1NN=C1CCCCC1
  10% | -5% | x | u | -1% | -14% | 10%[46.1 µM] | x
COc1ccc(C2/C(=C(/O)c3ccc(C)cc3)C(=O)C(=O)N2C)cc1 (centres undefined)
  0% | 16% | -1.8% | u | -4% | 1% | 10% | -5%
CCOC(=O)C1=NN(c2ccc(OC)cc2)C2C(=O)N(c3ccccc3OC)C(=O)C12 (centres undefined)
  -9% | -8% | x | u | 1% | 1% | -3% | x
C=CCc1ccc(OCCCCNC(C)CC)c(OC)c1 (centres undefined)
  -8% | -15% | 0.2% | u | -6% | x | -13% | 0%
O=C1CC(N2CCN(S(=O)(=O)c3ccccc3F)CC2)C(=O)N1c1ccccc1Cl (centres undefined)
  -13% | x | x | 1% | 3% | -11% | 4% | x
CC(C)Oc1ccc(/C=C(/NC(=O)c2ccccc2)C(=O)NC(Cc2ccccc2)C(=O)O)cc1 (centres undefined)
  0% | 28% | x | -11%[46.1 µM] | -1% | -3% | x | x
O=C(Cn1ccn(-c2ccc(F)cc2)c(=O)c1=O)NCCc1ccccc1
  -6% | x | -0.2% | x | x | x | 7%[46.1 µM] | -7%
COc1ccc(NC(=O)C2CCN(S(=O)(=O)c3ccc4c(c3)CC(C)N4C(C)=O)CC2)c(OC)c1 (centres undefined)
  u | -6% | x | x | -16% | -6% | x | x
COC(=O)c1cccc(NC(=O)C2COc3ccccc3O2)c1C (centres undefined)
  67%[activator] | -3% | -0.8% | 0% | -1% | -14% | 0% | 6%
Cc1cccc(C)c1NC(=O)CC1SC2=NCCN2C1=O (centres undefined)
  -15% | 11% | 0.3% | 9%[46.1 µM] | u | -4% | -13% | -13%
COc1ccc(CN2CCN(Cc3c[nH]c4ccccc34)CC2)cc1
  -16% | 5% | x | u | 2% | -16% | 9% | x
Cc1ccc(-c2csc(/C(C#N)=C(\O)CCl)n2)cc1
  -11% | x | x | u | -2% | 0% | u | x
CC1(C(=O)NCCN2CCOCC2)C=CC2(CCCCC2)N1C(=O)c1ccccc1 (centres undefined)
  40%[activator] | 13% | -0.7%&1.2% | u | 7% | -14% | 5% | 0%&0%
O=C(CSc1ccc2nnc(-c3cccnc3)n2n1)N1CCOCC1
  -2% | -7% | 1.8% | x | 1% | 17% | x | 19%
COc1cccc(NC(=O)C23CCC(C)(C(=O)O2)C3(C)C)c1 (centres undefined)
  16% | -6% | 4.8% | -2% | 2% | -6% | -22% | -2%
CC1CCN(C(=O)c2c(NC(=O)c3ccccc3Cl)sc3c2CCC(C(C)(C)C)C3)CC1 (centres undefined)
  -6% | x | -3.9% | -2%[46.1 µM] | x | x | -22%[46.1 µM] | -6%
CC1(C)CC(=O)c2sc(NS(=O)(=O)c3ccccc3)nc2C1
  -19% | 0% | x | 17%[46.1 µM] | -1% | -24% | -17% | x
Cc1ccc(NC(=O)c2sc3nc[nH]c(=O)c3c2C)cc1Cl
  22% | x | 7.9% | x | x | x | u | u
Clc1ccc(SCc2cc(N3CCOCC3)nc(-c3ccccn3)n2)cc1
  -26% | x | x | u | 0% | -2% | u | x
COC(=O)c1cn(C(=O)c2ccc(F)cc2)c2ccccc12
  -3% | -3% | x | x | 17% | -9% | x | x
Cc1c(CC(=O)N[C@@H](C)C(=O)O)c(=O)oc2cc3occ(-c4ccccc4)c3cc12
  2% | 6% | x | x | 0% | -1% | x | x
CCc1ccccc1NC(=O)/C(C#N)=C/c1ccc(Sc2ccccc2)o1
  -8% | 3% | -5.8% | -36% | -9% | -3% | 8% | 9%
Cc1nc2c(-c3ccccc3)c[nH]n2c(=O)c1Cc1ccccc1
  -8% | x | x | 9.2µM* | -5% | 3% | u | x
CCC(=O)N1CCC2(CC1)Oc1ccc(F)cc1C(=O)C21CC(c2cccnc2)=NO1 (centres undefined)
  -8% | -4% | x | x | 1% | 2% | x | x
COc1cccc2[nH]c3c(N4CCN(Cc5ccc6c(c5)OCO6)CC4)ncnc3c12
  x | -18% | 2.9% | 1% | 1% | x | x | -6%
O=C(NCc1nnc(SCC(=O)N2CCCC2)o1)c1ccccc1F
  -9% | 5% | 1.8% | 20% | -3% | -16% | 5% | 2%
Cc1ccc(N2CC(C(=O)Nc3nc4ccc(S(C)(=O)=O)cc4s3)CC2=O)cc1C (centres undefined)
  -1% | 23% | x | 2%[46.1 µM] | 2% | 2% | -6%[46.1 µM] | x
CCOc1ccc(-n2nc(C(=O)N3CCN(CC)CC3)c3ccccc3c2=O)cc1
  -22% | -2% | -0.7% | 18% | -23% | -1% | 10% | -5%
COc1cc2c(cc1O)[C@@H]1Cc3cc(O)c(OC)cc3[C@H](C2)N1C
  -23% | 6% | x | x | 1% | -22% | x | x
CCN(CC)CCNC(=O)c1ccc(Cn2c(=O)c3cccn3c3cccnc32)cc1
  24% | x | -7.1% | x | x | x | 1%[46.1 µM] | -12%
CCOC(=O)c1c(C)[nH]c(C(=O)COC(=O)CNC(=O)c2ccc(Cl)cc2Cl)c1C
  -5% | 8% | u | u | 10% | -16% | -2% | -30%
Nc1ccc2oc(-c3cccc4ccccc34)nc2c1
  u | 18% | -12% | u | -3% | u | u | -3%
Cn1c(=O)c2c(-c3ccc(C(C)(C)C)cc3)n(N3CCOCC3)cc2n(C)c1=O
  -18% | -32% | 4.4% | 4% | 2% | 15% | u | -12%
CCOc1ccc(C(=O)Nc2ccc(-n3nncc3-c3ccccc3)cc2)cc1OCC
  -27% | x | -5.4% | x | x | x | u | 16%
COc1cccc(/C=C2\N=C(C3CCCCC3)OC2=O)c1OC
  -9% | x | x | u | 4% | -9% | u | x
CCCc1cc(C(=O)NCc2ccc(OC)cc2)no1
  44%[activator] | -50% | 3.1% | x | 6% | 9% | x | 4%
Cc1ccc(-n2c(=O)c(C#N)cc3c(=O)n4cccc(C)c4nc32)cc1
  -4% | 11% | 9.0% | -4% | 7% | 23% | -5% | 25%
O=C(NNS(=O)(=O)c1ccc(F)cc1)c1ccccc1
  38%[activator] | 5% | x | 23% | 1% | 23% | 6% | x
CCN(CC)S(=O)(=O)c1ccc(N2CCN(c3ccccc3O)CC2)nc1
  23% | -37% | x | u | -4% | 10% | -21%[46.1 µM] | x

Structural class: the entries above with a thiophene ring, fused or not
Values run as follows: StopGo reporter | NS1 function inh | Cruzain inh Det | MARV entry inh | SARS PLpro yeast | RE007 growth inh | LASV entry inh | Cruzain inh noDet
CC1CCN(C(=O)c2c(NC(=O)c3ccccc3Cl)sc3c2CCC(C(C)(C)C)C3)CC1 (centres undefined)
  -6% | x | -3.9% | -2%[46.1 µM] | x | x | -22%[46.1 µM] | -6%
Cc1ccc(NC(=O)c2sc3nc[nH]c(=O)c3c2C)cc1Cl
  22% | x | 7.9% | x | x | x | u | u

More entries.
smiles	StopGo reporter	NS1 function inh	Cruzain inh Det	MARV entry inh	SARS PLpro yeast	RE007 growth inh	LASV entry inh	Cruzain inh noDet
O=C(Nc1ccc(N2C(=O)C3C4C=CC(C4)C3C2=O)cc1)Nc1nncs1 (centres undefined)	-13%	10%	-3.3%	x	2%	5%	x	-5%
Cc1ccc(F)cc1NC(=O)N1CCNC(=O)C1CC(=O)Nc1cc(Cl)ccc1Cl (centres undefined)	-9%	-8%	x	u	4%	-4%	1%	x
O=C(NCCc1ccccc1)C1CCCN(S(=O)(=O)c2cccs2)C1 (centres undefined)	-15%	-6%	1.8%	-8%	3%	17%	x	10%
Cc1ccc(C(=O)NCCc2ccc(S(N)(=O)=O)cc2)cc1[N+](=O)[O-]	-10%	x	x	2%	0%	2%	13%	x
CCc1ccccc1N1CC(C(=O)O)CC1=O (centres undefined)	-6%	2%	3.2%	7%	3%	-3%	u	-24%
O=C(O)c1cc([N+](=O)[O-])c(Nc2cccc3ccccc23)c([N+](=O)[O-])c1	6%	-47%	x	x	-3%	1%	x	x
CC1CCC2C(=O)N(c3cccc(OS(=O)(=O)c4ccccc4)c3)C(=O)C2C1 (centres undefined)	-6%	-6%	-6.5%	-14%	14%	0%	-1%	14%
CC(C)(C)C(=O)CN1C(=O)NC2(CCc3ccccc32)C1=O (centres undefined)	-7%	1%	x	x	0%	5%	x	x
O=C(CCS(=O)(=O)c1cccc2nsnc12)Nc1ccc(F)cc1	-9%	x	-2.9%	3%[46.1 µM]	x	x	-1%[46.1 µM]	-1%
O=C(Cc1ccccc1)Nc1ccc(C(=O)NCC2COc3ccccc3O2)cc1 (centres undefined)	-5%	-3%	-3.9%	u	19%	2%	u	-4%
O=C(NC1CCCCC1)C(c1ccco1)N(C(=O)c1csnn1)c1cccc(Cl)c1 (centres undefined)	-2%	-5%	x	u	-2%	-13%	u	x
CCc1ccccc1NC(=O)C(Cc1ccccc1)c1nn[nH]n1 (centres undefined)	-7%	21%	x	x	-1%	-2%	x	x
